# Bioassay records as filed in PubChem BioAssay.
# S aureus helic – inhibitors of S. aureus replicative helicase, primary screen, biochemical, fluorescence unwinding readout | purified S. aureus helicase, fluorescence unwinding assay; about half of the hits fall short of the stated cut | inhibition, %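 (tested at about 80 µM)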 | 0.05% of 120,000 active | AID 485395, 2010;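 active means both duplicates at 50% or more, or one of them with a favoured structure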;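 further: 0% = mean of negative control wells and 100% = mean of positive control wells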
# MgrA-DNA mod – S. aureus MgrA activity modulators, primary screen, biochemical, S. aureus Newman, fluorescence polarization | MgrA-DNA binding | AID 602314, 2012 | inhibition, %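 (about 10 µg/mL by stock and volumes)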 | 0.13% of 84,000 active;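 active means above 50% in either of two replicates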;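 further: 0% = protein plus DNA without compound and 100% = DNA alone without protein; higher means less MgrA bound to DNA so lower polarization; one replicate is shown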
# Starred values were filed as active, the others as inactive; x = no result given; & = joins results of further samples. This is a subset; rates above refer to the full screens.
SMILES,S aureus helic,MgrA-DNA mod
Cc1cc(C(=O)C(F)(F)F)c(C)n1-c1ccc(C(F)(F)F)cc1,x,-0.6
Cc1ccc(Nc2nc(N)nc(COC(=O)CN3CCCC3=O)n2)cc1,8,x
COC(OC)c1ccc2c(N)c(C(=O)Nc3ccccc3)sc2n1,x,-0.3
O=C(Nc1ccc2c3c(cccc13)S(=O)(=O)N2)c1ccccc1,13,-1.8
Cc1cc(Cl)ccc1OC(C)C(=O)OCC(=O)Nc1ccc2[nH]c(=O)[nH]c2c1 (stereo unspecified),-5,x
CCn1c(CCc2ccccc2)nnc1SCC(=O)Nc1cccc(OC)c1,18,-0.8
CC1CCN(C(=O)COC(=O)c2ccc(Cl)nc2)CC1,0,-1.6
Clc1ccc(-c2nnn3c2nc(NCc2ccco2)c2ccccc23)cc1,25,x
COc1ccc(Cl)cc1NC(=O)COc1ccccc1,-14,0.2
CC(C)C1C(c2ccccc2)N(C)C(c2ccccc2)CC1(O)c1ccccc1 (stereo unspecified),17,-0.6
COc1ccccc1NC(=O)NCc1nc2nc(C)cc(C)n2n1,-9,x
C[n+]1ccccc1-c1nc2ccccc2s1,10,-4.2
Cc1csc(Nc2ccc(Cl)cc2)[n+]1C,x,-0.3
CCOC(=O)C1=C(C)Nc2ccccc2N=C1NC(=O)C1CC2C=CC1C2 (stereo unspecified),-1,x
O=S1(=O)CCN(Cc2ccc3c(c2)OCCCO3)CC1,x,-2.2
CCn1c(=O)c(C(=O)Nc2ccc(Cl)cn2)c(O)c2ccccc21,3,0.8
N#CC(C(=O)C1CCCCC1)c1nc2ccccc2s1 (stereo unspecified),-19,0.2
CC1Cc2cc(S(=O)(=O)NN3CCOCC3)ccc2N1C(=O)C1CC1 (stereo unspecified),2,0.1
Cc1ccc(C)n1-c1ccc(CC(=O)O)cc1,23,x
O=C1CCc2cc(C(=O)CSc3nnnn3C3CCCC3)ccc2N1,-6,x
O=C1c2ccccc2C(=O)N1c1nccc(Br)c1Br,-10,0.6
Cc1ccc(C#N)c(SCC(=O)O)n1,-4,-1.0
O=C(O)CCc1ccccc1O,-13,x
O=S(=O)(c1ccc(F)cc1F)n1nccc1-c1ccc(-c2ccc(F)cc2F)o1,x,-1.4
CC(C)(C)NNC(=S)Nc1cccc(F)c1,-18,x
CCc1ccc(NC(=O)N(Cc2c[nH]c3ccccc23)C2CCCC2)cc1,6,-0.2
CC(=O)Nc1ccc(NS(=O)(=O)c2cn(C)cn2)cc1,-17,x
COC(=O)COc1ccc(Br)cc1,3,x
CCOc1ccc(S(=O)(=O)Nc2cnc3ccccc3c2)cc1,-9,x
CCOc1ccc(/C=N\n2c(C)nnc2C)cc1,-1,4.6

# One compound at a time, as listed above. Order of screens: S aureus helic | MgrA-DNA mod
# Cc1ccc(C#N)c(SCC(=O)O)n1 as listed: -4 | -1.0
# O=C1CCc2cc(C(=O)CSc3nnnn3C3CCCC3)ccc2N1 as listed: -6 | x

# Quoted from the listing.
# S aureus helic with `O=C1CCc2cc(C(=O)CSc3nnnn3C3CCCC3)ccc2N1` = -6
# MgrA-DNA mod with `O=C1c2ccccc2C(=O)N1c1nccc(Br)c1Br` = 0.6
# S aureus helic with `CC(C)(C)NNC(=S)Nc1cccc(F)c1` = -18

# New compounds follow
SMILES,S aureus helic,MgrA-DNA mod
O=C1CCN(c2ccccc2)N1,4&10,12&9.6
O=S(=O)(c1c(Cl)sc(Cl)c1Br)N1CCSCC1,x,0.4
Cc1cc(=O)[nH]c(SCc2nc3ccccc3n2C)n1,12,x
CCN(CC)c1ncc2c(=S)[nH]c(=S)[nH]c2n1,x,-1.6
O=C(O)CCSc1nc2ccccc2n1-c1ccccc1,13,x
Cc1nn(CC(=O)NCc2ccc(OC(C)C)cc2)c(=O)c2cc3occc3n12,9,-0.3
O=C(NC(=S)c1ccccc1)C1CC1,7,x
CCOC(=O)c1cc2c(=O)n3ccccc3nc2n(C2CCCCC2)c1=NC(=O)c1cccnc1,9,9.6
Cc1cc(C)c(NC(=O)C2CC(=O)N(C3CCCC3)C2)c(C)c1 (stereo unspecified),-4,x
Cc1nn(-c2cccc(C(F)(F)F)c2)c(Cl)c1/C=N/n1cnnc1,3,0.2
CCOC(=O)c1ccc2ncc(C(=O)OCC)c(Nc3ccc(N(C)C)cc3)c2c1,-22,x
Cc1ccccc1Cn1cc(S(=O)(=O)CC(=O)Nc2nccs2)c2ccccc21,5,x
O=C(NCC1OCCc2ccccc21)C(c1ccccc1)c1ccccc1 (stereo unspecified),0,0.8
Cc1ccccc1NC(=O)CC(C)C,6,-2.2
CN(C(=O)c1nn(-c2ccccc2)c(=O)c2ccccc12)C1CCS(=O)(=O)C1 (stereo unspecified),-6,x
C=CCSc1nc2c(c(=O)n1Cc1ccco1)C1(CCCCC1)Cc1ccccc1-2,14,3.1
C=CCN(c1ccccc1)S(=O)(=O)c1cccc(C(=O)N2CCN(c3ncccn3)CC2)c1,-6,x
CC(Oc1ccccc1)c1ccnc(N)n1 (stereo unspecified),x,1.9
CCOC(=O)c1oc2cc(O)cc(O)c2c(=O)c1-c1ccc(OC)c(OC)c1,10,x
CC(C)(C)c1ccc(CSc2nnc(-c3ccco3)n2-c2ccccc2)cc1,7,1.6
NC(=O)NC(CC(=O)Nc1cccc(-c2nnc3n2CCCCC3)c1)c1ccccc1Cl (stereo unspecified),4,x
CN(C)C1(CNC(=O)Cc2n[nH]c(=O)c3ccccc23)CCCCC1,6,x
CCOC(=O)c1cc(C(C)(C)C)nc(SC)c1C#N,x,-2.6
NCCSSCCN,x,-1.3
Fc1ccccc1-c1nn[nH]n1,x,0.6
O=C(Oc1ccc(N(Cc2ccco2)C(=O)Cn2cnc3ccccc3c2=O)cc1)c1ccccc1F,0,-0.7
CNc1nc(Oc2ccc(=O)[nH]n2)nc(N(C)C)n1,16,x
Cc1ccc(F)cc1NC(=O)Cc1ncc(C(F)(F)F)cc1Cl,x,-2.4
CCC(CC)NC(=O)Cn1[nH]c(=O)c2ccccc2c1=O,-8,x
O=C(CSc1nnc2ccccn12)Nc1ccc(Br)cc1,x,1.3
CN(C)CCCNCc1cccn1C,13,x
CCn1c(=O)cc(SCC(=O)NC2CCCc3ccccc32)c2ccccc21 (stereo unspecified),17,-2.1
C=CCN1C(=S)SC2CS(=O)(=O)CC21C (stereo unspecified),4,x
CCN(CC)CCn1c(NCc2ccccc2OC)nc2ccccc21,8,x
Cc1cc(C(=O)N(c2ccccc2)C(C)C2CC2)c(Cl)cc1Cl (stereo unspecified),x,-0.3
O=C(CSc1nc2ccccc2c(=O)n1-c1ccccc1)NCCCN1CCOCC1,6,x
COc1cc(OC)cc(-c2nc3ccccc3c(=O)n2OC(=O)c2cc(Cl)ccc2OC)c1,x,1.7
COc1cc(NC(=O)c2cnccn2)cc(OC)c1,x,-2.6
COc1ccc(/C=N/n2cnc3c([nH]c4ccc(OC)cc43)c2=O)cc1,13,0.0
CCC(=O)N1CCc2cc(S(=O)(=O)CCC(=O)N(C)c3ccc(OC)cc3OC)ccc21,-17,x
c1ccc2c(c1)nc1n2CCN1,-26,x
Cc1cc(C)cc(NC(=O)c2cc3ccccc3o2)c1,3,2.0
O=C(CCn1nnc2ccccc21)Nc1nnc(COc2ccccc2F)s1,6,1.5
COc1cc(C(=O)Nc2cc(-c3nc4ccc(C)cc4o3)ccc2C)ccc1OCc1ccc(Cl)cc1,x,3.2
Cc1ccc(-n2nc(C)cc2NC(=O)CC#N)cc1,13,-0.8

# The closing 4 records of the section above lead into the next.
SMILES,S aureus helic,MgrA-DNA mod
Cc1cc(C)cc(NC(=O)c2cc3ccccc3o2)c1,3,2.0
O=C(CCn1nnc2ccccc21)Nc1nnc(COc2ccccc2F)s1,6,1.5
COc1cc(C(=O)Nc2cc(-c3nc4ccc(C)cc4o3)ccc2C)ccc1OCc1ccc(Cl)cc1,x,3.2
Cc1ccc(-n2nc(C)cc2NC(=O)CC#N)cc1,13,-0.8
CC(C)n1c(SCC(N)=O)nc2ccccc21,-8,-3.3
CC(=O)SC1CC(=O)N(c2cc(C(F)(F)F)cc(C(F)(F)F)c2)C1=O (stereo unspecified),x,-0.6
Cc1c(OC2CCCCC2=O)ccc2c(-c3ccccc3)cc(=O)oc12 (stereo unspecified),5,0.5
O=S(=O)(c1cccc2cccnc12)N1CCN(c2cccc(Cl)c2)CC1,-23,x
N#Cc1ccc(NC(=O)CC2(CC(=O)O)CCCC2)cc1,x,-1.4
Cc1nn(C(CC(=O)O)C(=O)O)c(C)c1Cl (stereo unspecified),-4,-0.8
NC(=O)COc1ccc(Cl)cc1Cl,-24,x
O=C(Nc1ccc(Cl)c(Cl)c1)Nc1nc(-c2ccccc2)cs1,-4,1.0
CCOC(=O)c1c(/N=c2\oc3ccc(OC)cc3cc2C(N)=O)sc2c1CCCC2,x,3.3
CC1CC(C)CN(C(=O)C2c3ccccc3C(=O)N(C)C2c2cccs2)C1 (stereo unspecified),4,1.4
CCCCN1COc2ccc3c4c(oc3c2C1)C(=O)c1ccccc1C4=O,51*,13
Cc1cccc(Nc2ncc3c(n2)CC(C)CC3=O)c1 (stereo unspecified),-2,-0.6
O=C(c1cc2cc(Br)cc(Br)c2oc1=O)N1CCCCCC1,-3,-1.1
CCNc1nc(NCC)nc(SCC(=O)c2ccc(OC)cc2)n1,x,3.9
Cc1ccc(C2=NN(C(=O)COC(=O)c3c(-c4ccccc4)noc3C)C(c3ccco3)C2)cc1 (stereo unspecified),7,x
Brc1cccc(-c2nnc3sc(CNCCc4ccccc4)cn23)c1,10,-2.2
CCNC(=O)c1cc(-c2ccccc2)nc2c1cnn2C(C)C,25,x
CC1(C)Cc2c(c(N3CCOCC3)nc3sc(-c4ccc(C(=O)NN)o4)c(N)c23)CO1,-68,x
Cc1nnc(SCc2ccccc2C#N)o1,-1,-3.2
CCC(=O)N1c2ccc(S(=O)(=O)N(C)Cc3ccccc3)cc2CC1C (stereo unspecified),-28,x
O=c1oc(-c2ccc(Br)cc2)nc2sc3c(c12)CCC3,x,1.0
Cc1ccc(S(=O)(=O)N(C)CC(O)Cn2c3ccccc3c3ccccc32)cc1 (stereo unspecified),-38,x
CCS(=O)(=O)c1ccc2oc(Nc3cc(C)cc(C)c3)nc2c1,8,x
OCCNCCSc1nnc(-c2cccs2)o1,2,x
CCCN(CCC)C(=O)C(C)Oc1ccccc1 (stereo unspecified),6,2.4
Cc1cc(C)cc(NC(=O)CCNS(=O)(=O)c2ccc3[nH]c(=O)ccc3c2)c1,0,x
Oc1c(Br)cc(C2N=C(c3ccccc3)NO2)cc1Br (stereo unspecified),-2,0.9
CC1CCCCN1CC(O)COc1ccc2ccccc2c1 (stereo unspecified),-23,x
Cc1cc(C)n2nc(CNC(=O)Nc3ccccc3C(F)(F)F)nc2n1,-17,x
CCCn1cc(S(=O)(=O)CC(=O)NC2CCCCC2)c2ccccc21,18,x
NC(=O)c1ccc(OCC2CCCO2)cc1 (stereo unspecified),12,x
COc1ccc(NC(=O)CSc2nc3c(cc2C#N)CCC3)cc1,x,1.3
COc1coc(C(=O)O)c1OC,6,-1.8
O=C(Nc1ccccn1)C12CC3CC(CC(C3)C1)C2,3,0.3
CCSc1nnc(SCC(=O)Nc2ccc(S(=O)(=O)N3CCCC3)cc2)s1,-5,x
O=C1CC(NC(=O)C(F)(F)F)=NN1c1ccccc1,6,-0.8
Cc1cc(C)n2nc(SCC(=O)NC(C)C(C)C)nc2n1 (stereo unspecified),34,x
CCOC(=O)Nc1ccc2c(CN3C(=O)NC(CC)(CC)C3=O)cc(=O)oc2c1,7,x
CC(C(=O)NCc1ccco1)N1C(=O)c2ccccc2C1=O (stereo unspecified),1,-1.2
O=C(CCN1C(=O)C2CC=CCC2C1=O)OCc1ccc(Cl)cc1 (stereo unspecified),-12,x
CNNC(=O)Cc1ccc(OC)c(OC)c1,x,-3.4
CCOC(=O)c1ccc(NC(=O)C(CC(C)C)N2C(=O)C3C4C=CC(C4)C3C2=O)cc1 (stereo unspecified),18,-1.7
COc1ccc(Nc2cc(C(=O)NCCC(C)C)c3ccccc3n2)cc1,5,0.4
NS(=O)(=O)c1ccc2nc(NC(=O)c3ccc(S(=O)(=O)N4CCCCC4)cc3)sc2c1,x,-1.2
Cc1ccc(S(=O)(=O)c2c(N)n(Cc3ccco3)c3nc4ccccc4nc23)cc1,0,x

# An excerpt of these results, with the structure last.
S aureus helic | MgrA-DNA mod | molecule
-23 | x | CC1CCCCN1CC(O)COc1ccc2ccccc2c1 (stereo unspecified)
-17 | x | Cc1cc(C)n2nc(CNC(=O)Nc3ccccc3C(F)(F)F)nc2n1
18 | x | CCCn1cc(S(=O)(=O)CC(=O)NC2CCCCC2)c2ccccc21
12 | x | NC(=O)c1ccc(OCC2CCCO2)cc1 (stereo unspecified)
x | 1.3 | COc1ccc(NC(=O)CSc2nc3c(cc2C#N)CCC3)cc1
6 | -1.8 | COc1coc(C(=O)O)c1OC

# Continuation.
SMILES,S aureus helic,MgrA-DNA mod
O=C(Cc1ccccc1)NCCSc1ccccc1,4,0.3
COc1ccccc1/C=C/C=N\N1CCN(c2ccccc2)CC1,10,1.5
CC(C)Nc1nc(-c2ccccc2)nc2ccccc12,13,-1.1
O=C(NCc1cccs1)c1cc2cccc3c2n1CCS3,5,x
CCOC(=O)c1c(NC(=O)COC(=O)Cc2cn3ccsc3n2)sc(C)c1Cc1ccc2c(c1)OCO2,17,x
COc1cccc(NS(=O)(=O)c2ccc3[nH]cc(C(=O)N4CCCCC4C)c(=O)c3c2)c1 (stereo unspecified),9,x
CSc1nc(N)nc(N2CCSCC2)n1,x,-3.0
COc1ccc(C2CC3(CC(C)(C)NC(=O)N3)Oc3cc(O)ccc32)cc1 (stereo unspecified),7,2.5
CCCn1cnc2cc(NCc3cccs3)ccc21,3,2.2
O=C(COC(=O)C1=COCCO1)Nc1ccc2[nH]c(=O)[nH]c2c1,-5,x
COc1ccc(-c2cc(C(F)(F)F)n3nc(C(=O)NCCN4CCOCC4)c(Cl)c3n2)cc1,x,-2.4
O=C(O)C1C2CC=CC2c2cc(Cl)cc3c2N1CC1CC=CC31 (stereo unspecified),11,9.6
COc1ccc(CN2CCc3c([nH]c4ccccc34)C2)cc1,-2,-1.8
